AID504770 = E. coli YBA685 growth inhibition, screen for V. cholerae RctB inhibitors; z-score (concentration not given with the values); E. coli YBA685 rctB-dependent plasmid, OD600 growth, 3 h; hits give low values; AID 504770; 0.27% of 130,000 active;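 active = z-score under -2 on both plates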;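 note: wells of about 30 µL received 100 nL stock; score is relative to mean and SD of the test wells; the first replicate is given; strong numbers were not always called active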
CapD inh = blocks the Bacillus anthracis CapD enzyme | 0.23% of 140,000 active | z-score (no concentration beside the values) | AID 492967 | purified CapD enzyme, fluorescence intensity read-out; hits give low values; some hits fall short of the stated cut;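 active = z-score under -4 in either of two replicates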;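 note: stock transfer was 100 nL into about 40 µL; score is relative to mean and spread of the plate; one replicate is shown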
Starred values were filed as active, the others as inactive; x = no result given; & = joins results of further samples. Not all compounds are listed. The share of hits here may be higher or lower than overall.

Results follow in this order: AID504770 | CapD inh
- O=C1C2CCCCC2C(=O)N1c1ccc2[nH]c(=S)sc2c1 (configuration not stated)
    x | 0.3
- CC12CC=C3c4ccc(O)cc4CCC3C1CCC2O (configuration not stated)
    -0.6 | -0.45
- N#C/C=C(\Nc1ccc(Br)cc1)c1ccccc1
    0.9 | -0.94
- O=C(CSc1ncn[nH]1)Nc1nc(-c2ccccc2)ns1
    1.1 | 0.96
- Cc1ncc(CO)c2cc(C(N)=O)c(=Nc3ccc(C(N)=O)cc3)oc12
    7.9 | -1.7
- CC(=O)Nc1ccccc1OCC(=O)NC(=O)Nc1ccc(C)cc1C
    -0.45 | x
- Cc1cc(C(F)(F)F)c2c(-c3ccccc3)nn(-c3ccccc3)c2n1
    1.3 | 24
- O=C(NCc1ccco1)NCC(F)(F)F
    -0.45 | -0.39
- CC1CCCCN1C(C(=O)O)c1ccccc1 (configuration not stated)
    0.3 | 0.58
- COc1ccc(Cl)cc1C(=O)N/N=C/c1cc(Br)cc(OC)c1O
    x | 0.14
- CCOC(=O)c1sc(N)c(C#N)c1COC(=O)CCCN1C(=O)c2ccccc2C1=O
    0.1 | x
- CC(C)(C)NC(=S)NCC1CC1
    1.9 | -0.38
- Cc1cc(Br)ccc1NC(=O)C(C)Oc1ccc(I)cc1 (configuration not stated)
    x | 0.14
- O=C(C(c1ccccc1)N1Cc2ccccc2C1=O)N1CCc2ccccc21 (configuration not stated)
    1.3 | 0.035
- COc1ccc(C(=O)NNC(=O)OCCc2ccccc2Br)cc1
    x | 0.61
- Cc1cc(-c2ccccc2)nc(SCC(=O)N2CCCC2)n1
    -0.1 | -0.19
- Cc1cc(N2CCOCC2)nc2ccc(NC(=O)CCC(=O)NC3CCCCC3)cc12
    0.25 | 21
- O=C(NCCC1=CCCCC1)C1CCCN(c2cnccn2)C1 (configuration not stated)
    2.1 | 5
- Cc1ccc(CC2C(=O)N(c3nc(C)cc(C)n3)C(=O)C2C)cc1 (configuration not stated)
    -1 | 0.26
- CCN(CC)c1c2c(nc3nncn13)CCC2
    -0.2 | -2.4
- CC(C)(C)c1csc(-c2cc3nccc(-c4cccc(C(F)(F)F)c4)n3n2)n1
    x | -0.26
- O=C1OC(c2ccccc2)=N/C1=C\c1ccc(N2CCOCC2)cc1
    -0.35 | x
- Cc1ccccc1C(=O)NN1C(=O)c2ccccc2C1=O
    -0.3 | x
- O=C(N/N=C/c1cn(-c2ccccc2)nc1-c1ccccc1)c1ccco1
    1.5 | x
- CCOc1ccccc1NC(=O)CN1C(=S)NC(C)(C)CC1C (configuration not stated)
    -0.85 | -0.075
- O=C(CSc1nc2[nH]ncc2c(=O)n1-c1ccccc1Br)N1CCN(c2ccccc2)CC1
    x | -0.24
- COc1ccc(-n2c(=O)c3ccccc3n(CC(=O)OCc3ccccc3)c2=O)cc1OC
    0.6 | -0.78
- CC(C)Cc1ccc(C(=O)CC2OC(=O)c3ccccc32)cc1 (configuration not stated)
    x | -0.12
- CC1(C)CC(=O)C2=C(C1)OC1=C(C(=O)CC(C)(C)C1)C2c1ccc(-c2ccccc2C(=O)O)o1
    x | -0.35
- CC(=O)Oc1ccc(Br)cc1/C=C1\N=C(c2cc([N+](=O)[O-])ccc2Cl)OC1=O
    x | 0.48

Shown with each value named: part of the list above
SMILES: N#C/C=C(\Nc1ccc(Br)cc1)c1ccccc1
  AID504770: 0.9 | CapD inh: -0.94

SMILES: O=C(CSc1ncn[nH]1)Nc1nc(-c2ccccc2)ns1
  AID504770: 1.1 | CapD inh: 0.96

SMILES: Cc1ncc(CO)c2cc(C(N)=O)c(=Nc3ccc(C(N)=O)cc3)oc12
  AID504770: 7.9 | CapD inh: -1.7

SMILES: CC(=O)Nc1ccccc1OCC(=O)NC(=O)Nc1ccc(C)cc1C
  AID504770: -0.45 | CapD inh: x

New compounds follow.
Results follow in this order: AID504770 | CapD inh
- O=C(CSc1nccc(=O)[nH]1)N1N=C2/C(=C/c3ccco3)CCCC2C1c1ccco1 (configuration not stated)
    0.45 | x
- CCCn1c(=O)n(C)c(=O)c2c(SC(C(=O)NC(=O)NC)c3ccccc3)nc(CC(C)C)nc21 (configuration not stated)
    0.05 | x
- Cc1[nH]c(=O)[nH]c(=O)c1/C=N/NC(=S)NCc1ccc(OC(C)C)cc1
    -0.65 | -0.12
- O=c1oc2ccccc2cc1-c1csc(CCCCc2nc(-c3cc4ccccc4oc3=O)cs2)n1
    x | 2.8
- O=C(O)/C=C/C(=O)c1ccccc1
    -1.2 | 0.22
- O=C(CNC(=O)C1CCCCC1)NC1CCCCC1
    0 | -0.15
- Cc1ccccc1Cn1cc(NC(=O)c2cc(CC(C)C)on2)cn1
    -0.05 | -0.26
- O=C(Nc1nc(SCc2ccc(Cl)cc2)n[nH]1)C1=NN(C2CCS(=O)(=O)C2)C(=O)CC1 (configuration not stated)
    0.35 | x
- O=c1c2ccccc2[nH]c(=S)n1CCS
    0.5 | x
- COc1ccc2c(c1)C(C)CC(C)(C)N2C(=O)NC1CCCCC1 (configuration not stated)
    x | -0.59
- O=C(Nc1ccccc1)C1CCN(C(=O)c2cccc(-n3cccc3)c2)CC1
    -0.4 | x
- O=c1[nH]cnc2cc(Cl)ccc12
    x | 0.73&0.08
- O=S(=O)(/C=C/c1ccccc1)Nc1ccc2cn[nH]c2c1
    0.4 | x
- CC(=O)NCc1ccc(C(=O)CSc2ncnc3sc(C)c(C)c23)o1
    -0.15 | x
- CCOC(=O)CSc1ncnc2sc3c(c12)CCCC3
    -2 | 1.2
- CCOc1ccc(C(=O)OC(C)C(=O)NC2CC2)cc1OCC (configuration not stated)
    -0.3 | x
- Cc1cc(C(F)(F)F)[nH]c(=O)c1C#N
    -1.5 | 41
- COC(=O)c1noc(C)c1C(=O)/C=C/N1CCCCC1
    -0.1 | 8.3
- COc1ccc(C2=NN(S(=O)(=O)c3ccccc3)C(c3cccc([N+](=O)[O-])c3)C2)cc1OC (configuration not stated)
    x | -0.16
- CC(=O)Nc1cccc(OC(C)C)c1
    0.6 | -0.47
- CN(C)C(=O)CN1CCN(C(=O)Nc2ccc(Cl)c(Cl)c2)CC1
    -0.6 | x
- COc1ccccc1CC(=O)n1cccn1
    -0.75 | 0.22
- CN1C(=O)C(O)(C2COC(C)(C)CC2=O)c2cc(Br)ccc21 (configuration not stated)
    -0.05 | 0.35
- Nc1ccccc1Sc1ccccc1[N+](=O)[O-]
    x | -1.2
- O=C(NC(C(=O)c1ccccc1)N1CCCCC1)c1ccccc1 (configuration not stated)
    2.3 | 0.34
- CCOc1ccc2cc(C3=NN(C(=O)CCC(=O)O)C(c4ccc(Br)cc4)C3)c(Cl)nc2c1 (configuration not stated)
    x | 5.6
- O=C(Nc1cccc2c1CCCC2)c1cc(C2CC2)[nH]n1
    0.95 | -0.83
- O=C1CCCCC1Sc1nnc(Cc2cccs2)n1CCc1ccccc1 (configuration not stated)
    0.25 | x
- COC(=O)c1ccc(COC(=O)c2cc(OC)c(OC)cc2NC(=O)c2ccco2)cc1
    0.1 | x
- COc1ccc(C=C(C#N)C#N)c2ccccc12
    -0.3 | x

Carrying on.
Results follow in this order: AID504770 | CapD inh
- NC(=O)C1CCN(Cc2cc(=O)oc3cc4c(cc23)CCC4)CC1
    0 | x
- Cn1c(=S)[nH]c2c(c1=O)C(C)(C)Cc1ccccc1-2
    x | 0.88
- Cc1ccc2c(CC(=O)Nc3ccccc3)coc2c1
    0.1 | x
- CC(C)N=C(N)/N=C(\N)Nc1ccc(Cl)cc1
    x | -1.3
- O=C(O)CSCC(=O)Nc1nc(-c2ccc(F)c(F)c2)cs1
    -0.6 | -1.2
- O=S(=O)(Nc1nc2ccccc2nc1Sc1nc2ccccc2o1)c1ccccc1
    1.4 | x
- Cc1ccccc1N1C(=O)C2C=CC=CC2n2cnnc21 (configuration not stated)
    -0.45 | 2
- COc1ccccc1N(Cc1ccccc1O)C(=O)COc1ccccc1C
    0.9 | -0.12
- O=C(NN=C1CCCC1)c1ccc2c(c1)OCO2
    -0.1 | x
- CN(C)S(=O)(=O)c1cccc(-c2cn3cc(Cl)ccc3n2)c1
    -0.5 | 28
- O=C1CCN(C(=S)NCc2ccccc2)CC1
    -1.1 | x
- O=C(Cn1ncc(N2CCCC2)c(Cl)c1=O)c1ccc(Cl)cc1
    x | -0.27
- Cc1cc(C)n2nc(SCC(=O)N(c3ccccc3)c3ccccc3)nc2n1
    0.65 | -0.98
- COc1ccc(C(=O)OCN2C(=O)c3ccccc3C2=O)cc1
    0 | 0.29
- Cc1oc(-c2ccccc2)nc1CSc1nc2ncccc2o1
    0 | -0.37
- CC(C)CCn1c(=O)c(C(=O)Nc2nc3ccc(Cl)cc3s2)c(O)c2ccccc21
    x | -0.33
- N#CC1(c2ccccc2)N=C2C=CC=CN2N=C1c1ccccc1 (configuration not stated)
    -0.35 | 0.49
- CC1=[N+]([O-])C(C)(C)C(c2cccs2)=[N+]1[O-]
    0.3 | -1.8
- COc1cccc2cc(C(=O)Nc3ccccc3)c(=Nc3ccc(C#N)cc3)oc12
    x | 0.29
- CC[n+]1c(-c2ccccc2)c2cc(N)ccc2c2ccc(N)cc21
    -0.05 | -0.79
- CC(C)(C)SCCNc1nc(Sc2ccc(Cl)cc2)nc(N2CCSCC2)n1
    0.5 | 0.95
- COc1ccc(C2=NN3C(C2)c2ccccc2OC32C(=O)Nc3ccccc32)cc1 (configuration not stated)
    -0.45 | -0.14
- COc1ccc(CN(CCN(C)C)Cc2ccccc2)c(OC)c1
    0.2 | x
- c1ccc(Cc2nc(NCCCN3CCOCC3)c3c4c(sc3n2)CCCC4)cc1
    x | -0.59
- CC(=O)N(Cc1cc2ccc(C)cc2[nH]c1=O)CC1CCCO1 (configuration not stated)
    0 | 19
- N#Cc1c(N)n(C2CCCC2)c2nc3ccccc3nc12
    0.15 | 78
- N#Cc1ccc(-c2ccccc2)nc1SCC(=O)O
    -0.05 | 0.43
- CCC(Sc1nc(C)cc(C)n1)C(=O)NC(C)c1ccccc1 (configuration not stated)
    0.65 | 0.22
- CCOC(=O)C(C)Oc1cc2oc(=O)c3c(c2cc1Cl)CCCC3 (configuration not stated)
    0.35 | -0.09
- COc1ccc(NC(=O)C(CC(C)C)NS(=O)(=O)c2ccc3[nH]c(=O)oc3c2)cc1 (configuration not stated)
    0.2 | -1.1

Next part (three carried over from the part before).
Results follow in this order: AID504770 | CapD inh
- CCC(Sc1nc(C)cc(C)n1)C(=O)NC(C)c1ccccc1 (configuration not stated)
    0.65 | 0.22
- CCOC(=O)C(C)Oc1cc2oc(=O)c3c(c2cc1Cl)CCCC3 (configuration not stated)
    0.35 | -0.09
- COc1ccc(NC(=O)C(CC(C)C)NS(=O)(=O)c2ccc3[nH]c(=O)oc3c2)cc1 (configuration not stated)
    0.2 | -1.1
- COc1ccc(NC(=O)CN2CCCC2)cc1
    1 | -0.17
- O=c1[nH]c(C(F)(F)F)nc2c1cnn2-c1ccccc1
    -0.95 | -0.14
- COc1ccccc1NS(=O)(=O)c1ccc(NC(=O)CCN2C(=O)C3CC=CCC3C2=O)cc1 (configuration not stated)
    0.8 | x
- CCCCNc1c(C(=O)OCC)c(C)nc2c1cnn2CC
    x | 0.09
- CC(C)=CCCC1=CCC2C(=O)NNC(=O)C2C1 (configuration not stated)
    -0.15 | x
- CCC1CCCCN1CCCNC(=O)c1cc2c(=O)[nH]c3ccccc3c2n1C (configuration not stated)
    -0.35 | -0.31
- CC1CCCC(C(=O)O)N1C(=O)CCS (configuration not stated)
    -0.2 | 0.38
- CC(C)N(Cc1ccccc1)C(=O)CSc1nc(C(C)(C)C)nc2c1c(=O)n(C)c(=O)n2C
    0.25 | x
- O=C(c1ccc2c(c1)[nH]c(=S)n1c3ccccc3nc21)N1CCN(c2cccc(Cl)c2)CC1
    x | -0.35
- CC(C)NCC1CCCO1 (configuration not stated)
    1.4 | x
- NC(=O)c1oc2ccccc2c1NC(=O)Cc1ccc(Cl)cc1
    -0.95 | x
- CCOC(=O)c1c(CC(C)C)csc1NC(=O)Cc1ccccc1
    1.4 | 0.66
- Cc1c(Cl)cccc1N1COc2ccc3c(C)cc(=O)oc3c2C1
    x | 21
- Cc1cc(C(=O)COC(=O)CCc2nc3ccccc3s2)c(C)n1CC1CCCO1 (configuration not stated)
    -1.1 | x
- CCCC(=O)N1CC2(C)CN(C(=O)CCC)CC(c3ccccc3)(C1)C2=O
    -0.25 | x
- O=C(Cn1c(=O)n(-c2ccccc2)c(=O)c2sccc21)NC1CCCC1
    0.55 | 0.48
- CCCCN(CCCC)Cc1nc2c(c(=O)[nH]1)C1(CCCC1)Cc1ccccc1-2
    x | -0.46
- Brc1ccc(NC2=Nc3ccccc3SC2)cc1
    -0.25 | -0.55
- CCOC(=O)C1CCCN(c2cc(Nc3ccc4c(c3)OCO4)c3c4c(onc24)-c2ccccc2C3=O)C1 (configuration not stated)
    0.65 | 0.28
- CCOc1cc(C#N)cc(Cl)c1O
    0.45 | x
- CCC(Sc1nc2ccccc2c(=O)n1C1CCCC1)C(=O)NCc1cccnc1 (configuration not stated)
    -0.5 | -0.71
- Cc1cc(C)c2c(=O)cc(C(F)(F)C(F)F)oc2n1
    1.6 | -0.32
- Cc1ccc2onc(OC(=O)N(C)C)c2c1
    0.4 | -0.54
- CCOC(=O)Nc1sc(NS(=O)(=O)c2ccc(C)cc2)nc1C
    1.6 | -0.04
- CCOC(=O)c1cc(C(=O)c2ccc(Cl)cc2)n2c1ccc1ccccc12
    2.1 | 2.4
- COc1ccc(OC)c(/C=N\NC(=O)C2C(=O)NCC2c2ccccc2)c1 (configuration not stated)
    -0.95 | 57
- C[N+]1(CCOC(=O)Nc2ccccc2)CCCCC1
    0.5 | 0.15
- CCn1nnc(N(C(=O)c2cccs2)C(=O)c2cccs2)n1
    2 | x
- CC(C)CCOc1ccc2c(c1)C(=O)c1cc(OCCC(C)C)ccc1-2
    x | -0.02
- C=CCn1c(N)c(C(N)=O)sc1=S
    -1.8 | x

Assay outcomes deposited in PubChem BioAssay by ICCB-Longwood Screening Facility, Harvard Medical School.
